High-throughput results as filed in PubChem BioAssay.
Mtb growth – M. tuberculosis H37Rv growth inhibitors, H37Rv strain (AID 1626); 220,000 compounds, 0.95% hits; M. tuberculosis H37Rv growth inhibition; higher % means a stronger effect; one-dose inhibition, % at 10 µM; IC50 in µM for titrated hits;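 active means confirmed in a dose series; inconclusive means inhibition above 80% but not taken into the dose series; inactive means below 80% or under 30% at every dose of the series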;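 further: bacteria incubated seven days before Alamar blue readout; 0% = bacteria only wells and 100% = bacteria with antibiotic wells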
Mtb betalactam – beta-lactam sensitization of Mtb H37Rv. M. tuberculosis H37Rv growth with meropenem, percent inhibition; hits of this screen are not shown here. inhibition, % at 25 µM. 330,000 compounds, 0.27% hits. AID 434955;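 active means about 74% or more and at least 40 points above the plate without the antibiotic, then above 30% in a dose series; inconclusive means first-round hits that could not be retested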;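 further: growth measured after seven days incubation then overnight dye step; 0% = bacteria only wells and 100% = bacteria with antibiotic; twin plates without the antibiotic show which effects depend on it; some results filed as inactive read as strong as hits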
Arbovirus anti – blocks arbovirus infection; arbovirus infection cell-based antiviral screen; inhibition, % at 10 µM; 200,000 compounds, 0.37% hits;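 active means inhibition from about 30%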;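 further: bluetongue infection of BSR cells; cell survival read as ATP light after 72 h; 0% = infected wells without compound and 100% = uninfected wells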
YopH inh – blocks Yersinia enterocolitica YopH tyrosine phosphatase; fluorescence Ex485/Em525; inhibition, %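 (about 10 µM by stock and volumes)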; 140,000 compounds, 0.16% hits;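 active means inhibition of 50% or more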;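 further: controls were vehicle for no effect and minimum signal wells for full effect; inactives centre near -20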
RecA splice inh – inhibitors of M. tuberculosis RecA intein splicing | P9WHJ3 | cell-free RecA intein splicing, fluorescence | inhibition, %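 (about 9 µM by stock and volumes)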 | 290,000 compounds, 0.75% hits | AID 2221; in the data active means inhibition above about 30%; inconclusive means no clear call, values can overlap the other calls;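 further: 0% = vehicle wells and 100% = reference inhibitor control wells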
Target sequence (P9WHJ3 whole entry, looked up, canonical isoform): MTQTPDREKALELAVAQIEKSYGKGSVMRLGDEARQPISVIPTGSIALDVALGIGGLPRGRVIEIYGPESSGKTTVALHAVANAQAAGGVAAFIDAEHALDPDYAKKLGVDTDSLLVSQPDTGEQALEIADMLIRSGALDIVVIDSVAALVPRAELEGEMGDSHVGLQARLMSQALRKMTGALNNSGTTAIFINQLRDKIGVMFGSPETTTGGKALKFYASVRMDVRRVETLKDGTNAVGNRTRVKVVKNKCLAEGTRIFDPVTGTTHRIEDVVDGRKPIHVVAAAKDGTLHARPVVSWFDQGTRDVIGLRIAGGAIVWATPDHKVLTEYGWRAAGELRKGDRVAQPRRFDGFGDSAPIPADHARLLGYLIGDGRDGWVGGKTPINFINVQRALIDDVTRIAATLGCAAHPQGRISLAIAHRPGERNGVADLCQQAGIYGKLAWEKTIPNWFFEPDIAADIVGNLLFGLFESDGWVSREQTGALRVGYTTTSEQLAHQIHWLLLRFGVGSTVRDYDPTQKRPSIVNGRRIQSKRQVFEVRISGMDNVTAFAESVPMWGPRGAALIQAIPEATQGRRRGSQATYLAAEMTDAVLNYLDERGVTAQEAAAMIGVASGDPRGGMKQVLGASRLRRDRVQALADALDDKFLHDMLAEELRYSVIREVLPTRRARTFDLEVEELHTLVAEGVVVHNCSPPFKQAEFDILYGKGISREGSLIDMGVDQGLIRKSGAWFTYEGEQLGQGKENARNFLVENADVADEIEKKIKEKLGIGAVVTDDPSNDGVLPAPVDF
Arbovirus anti repeat – also measured in Arbovirus anti; calls as there; inhibition, %; measured here: 10K subset replicate screen; many hits read low in the repeat;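 first of two repeat runs on a subset; 0% = infected and 100% = uninfected wells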
Numbers without * were called inactive; i = inactive; ? = inconclusive; · = not tested or not shown. These rows are one share of the data; rates above refer to the full screens.

SMILES	Mtb growth	Mtb betalactam	Arbovirus anti	YopH inh	RecA splice inh	others
CCN(CC)S(=O)(=O)c1ccc(-c2nnc(SCC(=O)N3CCOCC3)o2)cc1	-4%	0	1	-25	-1.2
CCc1nc(SCc2cc(Cl)ccc2OC)n[nH]1	-2%	-6	1	-10	0.2
CC(C)(C)c1ccc(C(=O)/C(C#N)=C/c2cccs2)cc1	·	-7	·	·	-0.5
Nc1ccc2c(c1)COc1ccccc1O2	68%	89	-7	-29	0.3
CC1CCN(CCOc2ccc(Cl)c(Cl)c2)CC1	-5%	4	-12	-20	-1.3
C=CCN(CC=C)C(=O)c1ccc(OC2CCN(Cc3ccccn3)CC2)cc1	-1%	-9	8	·	-1.8
CCCC(=O)C1=C(O)C(C(=O)OC)C(C)(C)CC1=NC(C)C (stereo unspecified)	-2%	-12	4	-5	-1.2
Nc1nccnc1C(=O)OCC(=O)Nc1cccc(S(=O)(=O)N2CCCCC2)c1	1%	-6	-3	-12	1.3
CC(=O)N/N=C/c1cc(C(C)C)cc(/C=N/NC(C)=O)c1O	-3%	-4	-21	·	i
O=C(O)c1cn(Cc2ccccc2)c2ccc(Cl)cc2c1=O	·	2	·	·	-0.4
COc1ccc(C(=O)NCc2nnc(SCC(=O)Nc3ccccc3OC)n2C)cc1	3%	0	6	·	-1.3
CCOC(=O)c1c(S(=O)(=O)Nc2ccc(C)cn2)c(C)n(C)c1C	·	1	·	·	-1.4
O=c1c2sc3nc(N4CCOCC4)c4c(c3c2ncn1-c1ccccc1)CCCC4	27%	64	-9	·	2.8
CCOC(=O)CCc1c(C)nc2c(c(C)nn2-c2ccccc2)c1C	·	5	·	·	0.9
Cc1ccc(-c2nnn(CCC(=O)N3CCCCC3C)n2)cc1 (stereo unspecified)	-9%	0	-3	13	3.9

No new results follow: entries from further up.
SMILES	Mtb growth	Mtb betalactam	Arbovirus anti	YopH inh	RecA splice inh	others
CCN(CC)S(=O)(=O)c1ccc(-c2nnc(SCC(=O)N3CCOCC3)o2)cc1	-4%	0	1	-25	-1.2
CCc1nc(SCc2cc(Cl)ccc2OC)n[nH]1	-2%	-6	1	-10	0.2

The listing picks up with the 4 entries that preceded the break.
SMILES	Mtb growth	Mtb betalactam	Arbovirus anti	YopH inh	RecA splice inh	others
CCOC(=O)c1c(S(=O)(=O)Nc2ccc(C)cn2)c(C)n(C)c1C	·	1	·	·	-1.4
O=c1c2sc3nc(N4CCOCC4)c4c(c3c2ncn1-c1ccccc1)CCCC4	27%	64	-9	·	2.8
CCOC(=O)CCc1c(C)nc2c(c(C)nn2-c2ccccc2)c1C	·	5	·	·	0.9
Cc1ccc(-c2nnn(CCC(=O)N3CCCCC3C)n2)cc1 (stereo unspecified)	-9%	0	-3	13	3.9
Cc1ccc(C2C(C(=O)c3cccs3)=C(O)C(=O)N2CCN2CCOCC2)o1 (stereo unspecified)	-2%	-7	-2	-26	-0.9
Cc1ccc(C(=O)Nc2nnc(C)s2)o1	-3%	7	1	-6	-2.4
CCCCn1c(N)c(N(CC(C)C)C(=O)CSc2nnc(-c3ccc(Cl)cc3)o2)c(=O)[nH]c1=O	·	-8	·	·	-0.4
Nc1ccc(C(=O)OCC(=O)NC(=O)c2ccccc2)cc1[N+](=O)[O-]	·	6	·	·	0.1
COc1ccc(C(=O)NCC(c2cccnc2)N2CCN(c3ccccc3OC)CC2)cc1OC (stereo unspecified)	·	0	-6	-47	0.5	Arbovirus anti repeat=-1
O=C(Nc1nnc(COc2ccc(F)cc2)s1)c1cccs1	-3%	-1	-7	2	1.3
COc1cc(C(=O)/C=C/Nc2ccc(NC(C)=O)cc2)cc(OC)c1OC	7%	1	-20	-27	-3.1
Cn1c(CNC(=O)c2ccco2)nnc1SCC(=O)c1ccccc1	-6%	0	0	·	-4.7
CCOc1ccc(OCCC(=O)OCC(=O)Nc2ccc3c(c2)OCCO3)cc1	·	27	·	·	-0.8
CCCN1C(=O)/C(=C2/C=Cc3ccccc3N2CC)SC1=S	10%	9	-2	·	13
O=C(Nc1cccc([N+](=O)[O-])c1)Nc1cnccn1	·	-14	·	·	-2.0
Cn1c(=O)c(=O)n(C)c2cc(N3CCCCC3)c(NS(=O)(=O)c3ccc([N+](=O)[O-])cc3)cc21	·	?	·	·	-3.5
FC(F)Sc1ccc(NC(=S)NC2CCCCC2)cc1	-3%	4	-16	-14	3.6
S=C1NC(c2ccccc2)N2C(=S)NC(c3ccccc3)N12 (stereo unspecified)	-6%	-1	7	-2	3.7
Cc1ccc(CNS(=O)(=O)NCc2ccc(Cl)cc2)cc1	-7%	-2	0	·	0.9

An excerpt from above in order of length of the SMILES, high to low.
SMILES	Mtb growth	Mtb betalactam	Arbovirus anti	YopH inh	RecA splice inh	others
CCCCn1c(N)c(N(CC(C)C)C(=O)CSc2nnc(-c3ccc(Cl)cc3)o2)c(=O)[nH]c1=O	·	-8	·	·	-0.4
Nc1ccc(C(=O)OCC(=O)NC(=O)c2ccccc2)cc1[N+](=O)[O-]	·	6	·	·	0.1
Cn1c(CNC(=O)c2ccco2)nnc1SCC(=O)c1ccccc1	-6%	0	0	·	-4.7

Additional results.
SMILES	Mtb growth	Mtb betalactam	Arbovirus anti	YopH inh	RecA splice inh	others
Cc1ccc(S(=O)(=O)CCN2CCN(c3ccccc3)CC2)cc1	·	-9	·	·	0.2
COc1cc(CC(=O)Nc2nc(-c3ccccc3)c(C(C)=O)s2)cc(OC)c1OC	·	6	·	·	-2.5
COc1ccc(Cl)cc1NC(=O)CN(C)C(=O)CCC(=O)c1cc(C)sc1C	·	-12	·	·	1.1
COC(=O)Cc1c(C)[nH]n(-c2cc(Cl)cc(Cl)c2)c1=O	6%	4	-2	·	40*
COc1cc(COC(=O)Oc2ccc(CNC(C)=O)cc2OC)c([N+](=O)[O-])cc1OC	·	4	·	·	-3.7
Cc1nn(-c2ccccc2)c2sc(C(=O)OCC(=O)N3CCCCC3)cc12	-5%	-5	·	·	-0.3
O=C1C(=O)N(CCN2CCOCC2)C(c2cccc(Cl)c2)/C1=C(\O)c1ccc2c(c1)OCCO2 (stereo unspecified)	·	4	·	·	-2.1
CN(Cc1ccccc1)c1ccc(C(CC(N)=O)NC(=O)Cc2cccc3ccccc23)cc1[N+](=O)[O-] (stereo unspecified)	·	29	·	·	-0.7
CCCN(CC(=O)Nc1ccc(C(N)=O)cc1)CC(=O)Nc1cc(Cl)ccc1Cl	-1%	7	-5	·	11
O=C(c1ccco1)N1CCN(C(c2ccccc2Cl)c2nnnn2Cc2cccs2)CC1 (stereo unspecified)	5%	-7	9	-19	7.7
O=C(c1ccc2ccccc2c1)N1CCCC1	·	0	·	·	0.3
Cc1cccc(-n2c(O)c(/C=N/Nc3nc4c(c(=O)n(C)c(=O)n4C)n3C)c(=O)[nH]c2=S)c1	0%	4	-9	-39	-17
CCCCNC(=O)c1onc(CCl)c1C(=O)OC	46%	98	-3	-19	2.6
CCCC1(c2ccccc2)NC(=O)N(CC(=O)Nc2ccccc2C(F)(F)F)C1=O (stereo unspecified)	·	-2	·	·	-0.1
Cc1ccccc1N=Nc1c(C)[nH]n(-c2ccccc2)c1=O	-1%	·	0	·	·
CCN(CC)CC(=O)Nc1nn(-c2ccccc2)nc1C(N)=O	-4%	-2	7	-43	2.6
COc1cc(NC(=S)NCc2cccs2)cc(OC)c1	1%	-2	-1	-6	-0.9
CCC(C)/C=C/C1=CC2=C(Cl)C(=O)C3(C)OC(=O)C(C(=O)C(C)C(C)O)C3C2=CO1 (stereo unspecified)	-5%	-3	1	·	-63
CCOC(=O)c1sc2nccc(N(C)C)c2c1N=CNOCc1c(F)cccc1Cl	17%	32	-1	-15	0.6
CCn1c(SCC(=O)NCc2ccco2)nc2c(c1=O)SC(C)C2 (stereo unspecified)	-6%	-4	9	1	1.6
CC(=O)NCCOC(=O)Nc1cccnc1	-14%	-3	5	-34	-1.6
COc1c(F)c(F)c(C(=O)Nc2ccc3oc(-c4ccncc4)nc3c2)c(F)c1F	4%	-2	-1	28	·
CCOc1ccccc1NC(=O)CN(c1nccs1)S(=O)(=O)c1ccc(N)cc1	3%	-8	2	-45	1.6
C#CCOc1ccccc1/C=N/NC(=O)c1ccccc1OCc1ccccc1	·	-5	·	·	-1.9
CC(C)C[C@H](NC(=O)OC(C)(C)C)c1n[nH]c(=S)n1N	7%	3	-7	-20	4.8
CC(NCc1ccco1)C(=O)N1CCc2ccccc2C1 (stereo unspecified)	0%	-1	4	0	0.9
O=C(CCc1nnc(C2CCCCC2)o1)N1CCN(Cc2ccccc2)CC1	-7%	-3	1	·	1.6
CN(C)c1nc(C(=O)O)nc(N2CCOCC2)n1	-8%	-8	·	·	0.4
O=C(Nc1cccnc1)/C(N=Nc1ccc(Cl)c(C(F)(F)F)c1)=C(\O)c1ccccc1	10%	8	6	-34	-2.3
CCOc1cc(C(C(=O)NCC2CCCO2)N(C(=O)Cn2nnc3ccccc32)c2ccc(NC(C)=O)cc2)ccc1O (stereo unspecified)	·	-2	·	·	-2.3
Cc1ccc2nc(C(F)OC(F)(F)F)[nH]c2c1 (stereo unspecified)	0%	-1	6	10	-81
CC(C)CC(NC(=O)C(CO)NC(=O)C1CCC(=O)N1)C(N)=O (stereo unspecified)	-4%	-6	24	·	-0.1
Cc1oc2c(c(C)cc3oc(=O)c(CC(=O)N[C@@H](CC(C)C)C(=O)O)c(C)c32)c1C	·	-1	·	·	-3.3
COC(=O)CC1C(=O)NCCN1C(=S)Nc1ccccc1Cl (stereo unspecified)	1%	2	11	·	-1.9
CCOc1ccccc1NC(=O)NCc1ccc2c(c1)OCO2	·	-11	·	·	-2.7
Cc1ccc(S(=O)(=O)N2CCOCC2)cc1C(=O)NCc1cn2ccsc2n1	-11%	-3	4	-40	-0.9
O=C(NCCNC(=O)c1cnccn1)c1ccc(Cl)c(Cl)c1	·	0	·	·	2.8
Cc1cc(C)n(C2CC(=O)N(c3cccc(Cl)c3)C2=O)n1 (stereo unspecified)	1%	5	-3	·	-1.5
CCSC1=N/C(=C\c2cccc(F)c2)C(=O)S1	5%	6	0	-17	8.1
Cc1ccc2c(COC(=O)CNC(=O)c3ccccc3)cc(=O)oc2c1	-11%	5	-4	-27	3.3
O=C(O)c1ccc(CNS(=O)(=O)c2ccc(Oc3ccccc3Cl)cc2)cc1	·	-14	·	·	1.5
COC(=O)N/N=C/c1cc(C)n(-c2ccc(F)cc2)c1C	-6%	7	4	·	-1.7
Cc1[nH]c2ccc(F)cc2c1CCNC(=O)C1CCCCC1C(=O)OCC(F)(F)F (stereo unspecified)	3%	0	0	13	-1.7
O=C(NCCc1ccc(Cl)cc1)c1ccc(CS(=O)Cc2ccccc2Cl)o1 (stereo unspecified)	·	-1	·	·	5.8
O=C(CSCc1ccc([N+](=O)[O-])cc1)NN=C1CCCCCC1	-3%	-1	-4	-24	1.0
CC(C)COP(=O)(OCC(C)C)C(O)c1ccc2c(c1)OCO2 (stereo unspecified)	-8%	-4	·	·	-1.2
COc1ccccc1OCCOCCOc1ccccc1Cl	11%	6	7	-28	1.3
O=C(Nc1ccc(Cl)cn1)c1cccc(S(=O)(=O)N2CCOCC2)c1	-2%	-19	1	-15	-3.3
CC(Oc1ccc(Cl)cc1Cl)C(=O)NC1=NN(c2ccccc2)C(=O)C1 (stereo unspecified)	2%	-5	-32	-49	15
CCN(C(=O)CSc1nnc(-c2ccc(OC(F)F)cc2)n1N)C1CCS(=O)(=O)C1 (stereo unspecified)	·	-10	·	·	-2.6
CCc1ccc(CCC(=O)Nc2ccccc2C(=O)O)o1	9%	-3	38*	-24	-0.9
COc1c2c(cc3oc(=O)ccc13)OC(C)(C)C=C2	-9%	-5	·	·	-2.7
Cc1ccc(N(CC(=O)NCCSc2ccccn2)S(C)(=O)=O)cc1	-5%	4	4	·	1.3
O=C1CC(Sc2nnc(-c3ccccc3O)o2)C(=O)N1c1ccccc1 (stereo unspecified)	·	0	0	-56	0.6
CCC1CCCCN1CCCNC(=O)C1CCN(Cc2nc(-c3ccc(Cl)cc3)oc2C)CC1 (stereo unspecified)	·	1	·	·	-0.4
Cc1cc(N)n(-c2ccc(S(=O)(=O)N3CCOCC3)cc2[N+](=O)[O-])n1	-6%	-1	·	·	3.1
COc1ccc(NC(=O)c2cc(OC)c(OC)cc2OC)c(S(=O)(=O)N2CCOCC2)c1	1%	-4	·	·	-0.5
Cc1ccc(C(=O)Oc2ccc(C(=O)COC(=O)C3CC(=O)N(Cc4ccco4)C3)cc2)cc1 (stereo unspecified)	-7%	82	6	-18	4.0
O=C(Nc1nc(-c2ccccc2)cs1)c1cccnc1	-5%	-1	-4	-20	1.9
NS(=O)(=O)OCc1ccc(C(F)(F)F)cc1	·	1	·	·	-1.8
O=C(CSC1=NS(=O)(=O)c2ccccc2N1)NCc1ccc(F)cc1	·	-8	·	·	-1.4
